Bead autofluor – compound fluorescence in toxin protease inhibitor counterscreen | compound autofluorescence counterscreen, microsphere flow cytometry; hits give high values | fluorescence intensity (no concentration beside the values) | 360,000 tested, 3.1% active | AID 624483;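 active = at least 3 SD above the mean of all compounds, about 16000 in these data; inconclusive = too few beads counted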;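 note: 100 nL of 1 mM stock went into each well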
Sa ugtP lethal – compounds lethal to S. aureus RN4220 ugtP deletion mutant; OD600 growth, 16 h; some inactives read as strong as hits; growth inhibition, % (no concentration beside the values); 330,000 tested, 0.54% active; AID 1259309;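 active = z-score under -3 and OD600 up to 0.15 on both plates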;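 note: plate controls were untreated wells for no effect and antibiotic for full effect; wells of about 80 µL received 100 nL stock; the first replicate is given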
Mtb hypoxia rep – Mtb hypoxia fluorescent reporter inhibition. M. tuberculosis hypoxia-regulated fluorescent reporter, fluorescence. fluorescence inhibition, % (no concentration beside the values). 300,000 tested, 0.1% active;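 active = 35 to 45% if threefold the growth effect, above 45% if 1.5-fold the growth effect; inactive = the rest, general growth blockers included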;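 note: wells of about 50 µL received 100 nL stock; 0% = vehicle wells and 100% = reference inhibitor wells; whole bacteria with a GFP reporter of the hypoxia response; strong numbers were not always called active; many hits fall short of the cut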
PrP 5UTR inh – suppresses PrP 5' UTR mRNA reporter expression; 340,000 tested, 0.35% active; cell-based PrP 5' UTR mRNA reporter, plate reader; AID 488862; inhibition, % (concentration not given with the values);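 active = every replicate at 50% or more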;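 note: 0 = median of the neutral control wells; tested in H4 reporter cells; numbers are from one replicate; inactives centre near -14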
Sa RN4220 lethal – S. aureus RN4220 growth inhibition; OD600, 16 h; inhibition, % (test concentration not listed); 330,000 tested, 0.33% active;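 active = z-score of -3 or lower and OD600 up to 0.18 on both plates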;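 note: plate controls were untreated cells for no effect and reference antibiotic for full effect; stock transfer was 100 nL into about 80 µL; one replicate is shown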
BJeLR lethal – kills HRASV12-expressing BJeLR cells; AID 1554; inhibition, % (test concentration not listed); 300,000 tested, 0.17% active; BJeLR (HRASV12) viability, CellTiter-Glo ATP luminescence, 48 h; reference of the scale not given here;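 active = replicate mean above 50%; inconclusive = above 50% but judged a plate artefact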;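 note: 50 nL library stock added to about 25 µL; numbers are from one replicate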
Mtb hypoxia rep growth – further read-out of Mtb hypoxia rep, marked with its call; growth inhibition, %; measured here: M. tuberculosis growth (absorbance);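 0% = vehicle and 100% = reference antibiotic; read after six days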
Starred values were filed as active, the others as inactive; u = inconclusive; x = not tested or not shown. Hits appear at their usual frequency; overall some 3.9% were active at least once.

1: CCCCNC(=S)NCC(c1ccccc1)c1c[nH]c2ccccc12 (configuration not stated)
2: Cc1ccc(Cn2c(=N)c(C(=O)NCC3CCCO3)cc3c(=O)n4cccc(C)c4nc32)cc1 (configuration not stated)
3: CC1(C)CC(=O)C(/C=N/c2ncccc2C(=O)O)=C(O)C1
4: Cc1cc(C)c2c(CN3CCN(Cc4ccc5c(c4)OCO5)CC3)cc(=O)oc2c1
5: O=C(Nc1ccccc1C(=O)NCC1CCCO1)c1ccccc1 (configuration not stated)
6: COc1ccc(C(=O)Nc2nnc(-c3ccc(F)cc3)s2)c(OC)c1
7: O=C(c1cnn(C(=O)CN2CCCC2=O)c1)c1ccccc1O
8: COc1ccc(NC(=O)COC(=O)CCc2ccc(S(=O)(=O)N3CCOCC3)cc2)c(OC)c1
screen / no.	1	2	3	4	5	6	7	8
Bead autofluor	3681	5038	8609	5932	10214	3748	5469	x
Sa ugtP lethal	-14	0	x	5	0	-7	7	7
Mtb hypoxia rep	-8	2	x	x	8	-4	7	8
Mtb hypoxia rep growth	-9	5	x	x	10	1	7	11
PrP 5UTR inh	2	-14	-24	-23	-18	-65	-3	x
Sa RN4220 lethal	-1.7	-2.3	x	-1.2	4.1	2.7	6.6	5.2
BJeLR lethal	-3	-2	-2	-6	4	10	x	x

9: O=S(=O)(NCc1csc(-c2cccnc2)n1)c1ccc(Cl)s1
10: C=CCNC(=O)C1CCN(S(C)(=O)=O)CC1
11: Cc1cccc(NC(=O)c2ccc(S(=O)(=O)N(C)C)cc2)n1
12: Cc1cc(=O)cc(C)n1-c1ccccc1N1CCOCC1
13: OC(COc1ccc(F)cc1Cl)CN1CCc2ccccc2C1 (configuration not stated)
14: Cc1ccc(C(=O)O/N=C2\CC3CCC2(C)C3(C)C)cc1 (configuration not stated)
15: COc1cccc(N2CCN(C3CC(=O)N(c4cccc(Cl)c4)C3=O)CC2)c1 (configuration not stated)
16: O=C(Cc1ccccc1[N+](=O)[O-])N1CCc2ccccc2C1
screen / no.	9	10	11	12	13	14	15	16
Bead autofluor	6283	3944	2647	10236	3712	21254*	4478	5004
Sa ugtP lethal	4	1	-2	-2	-1	x	4	3
Mtb hypoxia rep	7	x	x	6	-5	x	6	8
Mtb hypoxia rep growth	8	x	x	3	10	x	-1	6
PrP 5UTR inh	-40	-2	-39	-15	9	3	-33	-40
Sa RN4220 lethal	-6.6	0.0	5.4	0.6	-1.3	x	2.0	0.9
BJeLR lethal	-8	-7	9	10	1	-7	14	-5

17: Cc1ccc(N2C(=O)N3C(c4cccc(C)c4)C4C(=O)N(Cc5ccccc5)C(=O)C4[C@]3(C)C2=O)cc1 (some centres not stated)
18: Cc1ccc(Nc2nc(N)nc(CCl)n2)c(C)c1
19: N/C(=N\OC(=O)c1ccc(Cl)cc1Cl)c1ccncc1
20: CSCCC(NC(=O)c1ccccc1)C(=O)NCC(C)(C)N1CCOCC1 (configuration not stated)
21: COc1ccc(N2C(=O)CC(NNC(=O)c3ccco3)C2=O)cc1 (configuration not stated)
22: C=CCC(C(=O)NC(C)c1ccccc1)C(=O)NC(C)c1ccccc1 (configuration not stated)
23: COC(=O)c1ccc(CSc2nc(-c3ccco3)cc(C(F)(F)F)n2)o1
24: Cc1nnc(SCC(=O)N2CCC(Cc3ccccc3)CC2)n(N)c1=O
screen / no.	17	18	19	20	21	22	23	24
Bead autofluor	x	4377	4597	3426	3353	3624	4869	2806
Sa ugtP lethal	2	9	2	-4	-6	11	14	6
Mtb hypoxia rep	-11	24	4	0	-7	-4	x	x
Mtb hypoxia rep growth	-1	19	-3	1	-9	8	x	x
PrP 5UTR inh	x	-58	-38	0	-10	-15	-8	3
Sa RN4220 lethal	2.4	3.6	1.8	-1.8	4.5	-0.1	-3.5	0.5
BJeLR lethal	x	121*	-5	x	2	-5	-4	-1

25: CCc1nc(Cl)c(C#N)c2c1CSC(C)(C)C2
26: CCOC(=O)CC1COCCN1C(=O)c1cc(COc2ccc(F)cc2Cl)on1 (configuration not stated)
27: CCN(CC)C(=O)CSc1nc2sc(C)c(C)c2c(=O)[nH]1
28: COC(=O)CCC(=O)N1CCCC(CO)(Cc2ccccc2F)C1 (configuration not stated)
29: CCc1ccc2[nH]c3nc(SCC(=O)NCC4CCCO4)nnc3c2c1 (configuration not stated)
30: S=C(NCCCNC(=S)Nc1ccccc1)Nc1ccccc1
31: Cc1cccc(Cl)c1OCCCCn1ccnc1
32: CCC1CCCCN1CCCNC(=O)c1ccc2c(c1)N(Cc1ccc(F)cc1)C(=O)c1ccccc1S2=O (configuration not stated)
screen / no.	25	26	27	28	29	30	31	32
Bead autofluor	2322	6146	x	3155	5180	2477	15915	4856
Sa ugtP lethal	-2	3	-7	9	8	-4	8	7
Mtb hypoxia rep	4	11	1	-2	-6	-2	6	3
Mtb hypoxia rep growth	6	9	10	-3	-4	4	2	0
PrP 5UTR inh	-5	-31	9	-7	0	3	-9	-5
Sa RN4220 lethal	5.5	1.1	6.8	2.5	6.4	-6.0	4.2	8.5
BJeLR lethal	4	-4	-5	-2	-12	3	1	12

33: COc1ccc(CC(C)N2CCN(c3cccc(C(F)(F)F)c3)CC2)cc1OC (configuration not stated)
34: O=c1c(-c2ccccc2)coc2cc(O)ccc12
35: COc1ccc(N(C(=O)CNC(=O)c2ccco2)C(C(=O)NC2CCCC2)c2cccnc2)cc1 (configuration not stated)
36: O=C(CNC(=O)c1cccs1)NN=Cc1cccc(Cl)c1
37: O=c1c2cc(Cl)cc(Cl)c2nc2n1CCC2
38: Cc1cc(C)cc(OCC(=O)Nc2ccc3c4c(cccc24)CC3)c1
39: Cc1nn(C)c(C)c1NC(=O)COc1ccc(Cl)cc1
40: Clc1cccc(Cl)c1Cn1ccc(C2CC2)n1
screen / no.	33	34	35	36	37	38	39	40
Bead autofluor	10438	4458	3946	x	4102	9067	5720	4316
Sa ugtP lethal	9	9	6	-1	4	-5	5	5
Mtb hypoxia rep	12	x	13	9	18	3	8	14
Mtb hypoxia rep growth	0	x	3	0	-4	4	0	9
PrP 5UTR inh	-58	-25	-28	x	-16	-20	-13	-88
Sa RN4220 lethal	2.1	3.0	4.7	1.2	4.7	6.0	4.4	8.2
BJeLR lethal	4	6	-8	x	4	-12	x	9

Among those listed so far, these have fluorine.
6: COc1ccc(C(=O)Nc2nnc(-c3ccc(F)cc3)s2)c(OC)c1
13: OC(COc1ccc(F)cc1Cl)CN1CCc2ccccc2C1 (configuration not stated)
23: COC(=O)c1ccc(CSc2nc(-c3ccco3)cc(C(F)(F)F)n2)o1
26: CCOC(=O)CC1COCCN1C(=O)c1cc(COc2ccc(F)cc2Cl)on1 (configuration not stated)
28: COC(=O)CCC(=O)N1CCCC(CO)(Cc2ccccc2F)C1 (configuration not stated)
32: CCC1CCCCN1CCCNC(=O)c1ccc2c(c1)N(Cc1ccc(F)cc1)C(=O)c1ccccc1S2=O (configuration not stated)
33: COc1ccc(CC(C)N2CCN(c3cccc(C(F)(F)F)c3)CC2)cc1OC (configuration not stated)
screen / no.	6	13	23	26	28	32	33
Bead autofluor	3748	3712	4869	6146	3155	4856	10438
Sa ugtP lethal	-7	-1	14	3	9	7	9
Mtb hypoxia rep	-4	-5	x	11	-2	3	12
Mtb hypoxia rep growth	1	10	x	9	-3	0	0
PrP 5UTR inh	-65	9	-8	-31	-7	-5	-58
Sa RN4220 lethal	2.7	-1.3	-3.5	1.1	2.5	8.5	2.1
BJeLR lethal	10	1	-4	-4	-2	12	4

Next results:
41: COc1ccc(CCN2CC(C(=O)Nc3cc(F)ccc3F)CC2=O)cc1OC (configuration not stated)
42: O=C(Nc1cccc(Cl)c1)c1ccc(S(=O)(=O)NCC2CCCO2)cc1 (configuration not stated)
43: Cc1ccc2nc(C)c(C(=O)NN=Cc3cccs3)n2c1
44: COc1ccc(Cn2c(O)c(C=Nc3ccc(O)cc3)c3ccccc3c2=O)cc1
45: O=C(NCCn1c(-c2ccncc2)nc2ccccc21)[C@H]1CCCN1c1nc(CN2CCCCC2)cs1
46: Cc1csc(SCC(=O)Nc2ccccc2[N+](=O)[O-])n1
47: CC(=O)Nc1ccc2c(c1)ncn2-c1ccc(C)cc1
48: COc1ccc(N2CCN(C(=S)Nc3ccc(F)cc3)CC2)cc1
screen / no.	41	42	43	44	45	46	47	48
Bead autofluor	6744	6039	x	10878	3914	4340	3944	3358
Sa ugtP lethal	-2	x	16	9	-7	2	4	1
Mtb hypoxia rep	11	x	6	4	3	2	1	8
Mtb hypoxia rep growth	4	x	13	-4	3	8	3	-1
PrP 5UTR inh	-33	4	x	-29	-8	-22	-4	9
Sa RN4220 lethal	0.8	x	-1.2	28	-8.6	2.3	1.5	1.5
BJeLR lethal	2	0	x	1	1	-4	x	-7

49: Nc1nn(-c2cccc(F)n2)cc1-c1ccccc1
50: Cc1[nH]c(=O)[nH]c(=O)c1S(=O)(=O)NCCOC12CC3CC(CC(C3)C1)C2
51: CCc1n[nH]c(=S)n1/N=C/c1c(C)nn(-c2ccccc2)c1Cl
52: O=C(/C=C/c1ccc(Br)o1)NC(c1ccccc1)c1ccccc1
53: O=C(COC(=O)c1cn(-c2ccccc2)nc1-c1ccccc1)Nc1ncc(Cl)cc1Cl
54: Cc1ccc(OCC(=O)Nc2ccc3c(c2)nc2n3CCOC2)cc1
55: O=C(O)CCC(=O)/C=C/c1ccccc1
56: Cc1ccc(NC(=O)CSc2nc(C)c(Cc3ccccc3)c(=O)[nH]2)cc1C
screen / no.	49	50	51	52	53	54	55	56
Bead autofluor	2206	9254	4909	9164	4245	20169*	4638	4225
Sa ugtP lethal	-12	3	x	6	-8	-5	6	-21
Mtb hypoxia rep	-4	17	x	-1	2	15	16	-8
Mtb hypoxia rep growth	15	9	x	12	5	19	8	-5
PrP 5UTR inh	-107	-16	16	-45	-8	-15	-11	-16
Sa RN4220 lethal	4.3	2.8	x	23	13	6.6	8.3	12
BJeLR lethal	8	6	-6	11	-2	-8	-8	4

57: CCOC(=O)C1CCCN(C(=O)/C=C/c2ccc(Cl)cc2)C1 (configuration not stated)
58: Cc1cc(C)c([N+](=O)[O-])cc1-c1ccc(C=NNC(=O)c2nonc2N)o1
59: Cc1cccc(C)c1NC(=O)CCCN1C(=O)C(c2ccccc2)Oc2cccnc21 (configuration not stated)
60: Cc1cccc(NS(=O)(=O)c2ccc(C)c(C(=O)NCC(c3cccs3)N(C)C)c2)c1 (configuration not stated)
61: COc1ccc(CC(=O)NC(CC(=O)O)c2ccc(OC)cc2)cc1 (configuration not stated)
62: CN(C)c1ncc(S(=O)(=O)c2ccccc2)c(-c2ccc(Cl)cc2Cl)n1
63: Oc1c(CNc2ccccc2)cc(COCc2ccccc2)c2cccnc12
64: COc1ccc(Nc2ncnc3sc(C)cc23)c(OC)c1
screen / no.	57	58	59	60	61	62	63	64
Bead autofluor	2605	x	5472	u	u	22616*	2939	3850
Sa ugtP lethal	10	-3	3	5	3	x	3	1
Mtb hypoxia rep	4	7	-1	8	-7	x	0	15
Mtb hypoxia rep growth	2	12	8	-5	-2	x	-9	7
PrP 5UTR inh	-14	x	-12	-27	-2	-13	-1	-35
Sa RN4220 lethal	10	-5.9	1.8	5.4	1.4	x	8.8	4.8
BJeLR lethal	-23	x	2	x	-10	1	x	1

65: CCOc1ccc(/C=N/NC(=O)c2cc3ccccc3cc2OC)cc1
66: O=C(CSc1nnc2scc(-c3ccccc3)n12)c1ccc2c(c1)OCCO2
67: Cc1cc(NC(=O)CSc2nnc(COc3cccc(C)c3C)n2Cc2ccco2)no1
68: CCOc1ccc(CC(=N)C2=C(O)CC(C)(C)CC2=O)cc1OCC
screen / no.	65	66	67	68
Bead autofluor	5378	5635	15465	8210
Sa ugtP lethal	x	2	-1	4
Mtb hypoxia rep	x	x	2	5
Mtb hypoxia rep growth	x	x	-1	10
PrP 5UTR inh	-14	-13	-9	-5
Sa RN4220 lethal	x	4.4	2.3	3.6
BJeLR lethal	7	-15	-1	12

Screening data as filed in PubChem BioAssay.
